ugtP null kill = compounds lethal to S. aureus RN4220 ugtP deletion mutant; OD600 growth, 16 h; some inactives read as strong as hits; growth inhibition, % (test concentration not listed); hit rate 0.54% among 330,000; AID 1259309;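 active means z-score under -3 and OD600 up to 0.15 on both plates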;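 further: plate controls were untreated wells for no effect and antibiotic for full effect; wells of about 80 µL received 100 nL stock; the first replicate is given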
PrP 5UTR inh = inhibition of PrP 5' UTR reporter expression; hit rate 0.35% among 340,000; inhibition, % (test concentration not listed); cell-based PrP 5' UTR mRNA reporter, plate reader;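 active means every replicate at 50% or more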;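 further: 0 = median of the neutral control wells; tested in H4 reporter cells; numbers are from one replicate; inactives centre near -14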
RN4220 kill = S. aureus RN4220 growth inhibition; hit rate 0.33% among 330,000; inhibition, % (test concentration not listed); AID 1259311; OD600, 16 h;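 active means z-score of -3 or lower and OD600 up to 0.18 on both plates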;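 further: plate controls were untreated cells for no effect and reference antibiotic for full effect; stock transfer was 100 nL into about 80 µL; one replicate is shown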
Mtb hypoxia rep = inhibitors of hypoxia-regulated fluorescent reporter in Mycobacterium tuberculosis; M. tuberculosis hypoxia-regulated fluorescent reporter, fluorescence; hit rate 0.1% among 300,000; fluorescence inhibition, % (concentration not given with the values); AID 1159583;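 active means 35 to 45% if threefold the growth effect, above 45% if 1.5-fold the growth effect; inactive means the rest, general growth blockers included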;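 further: wells of about 50 µL received 100 nL stock; 0% = vehicle wells and 100% = reference inhibitor wells; whole bacteria with a GFP reporter of the hypoxia response; strong numbers were not always called active; many hits fall short of the cut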
Autofluor counter = flagged as autofluorescent in microsphere protease counterscreen; compound autofluorescence counterscreen, microsphere flow cytometry; hits give high values; fluorescence intensity (concentration not given with the values); hit rate 3.1% among 360,000;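 active means at least 3 SD above the mean of all compounds, about 16000 in these data; inconclusive means too few beads counted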;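 further: 100 nL of 1 mM stock went into each well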
BJeLR viability = BJeLR cell viability loss | BJeLR (HRASV12) viability, CellTiter-Glo ATP luminescence, 48 h; reference of the scale not given here | inhibition, % (test concentration not listed) | hit rate 0.17% among 300,000 | AID 1554;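 active means replicate mean above 50%; inconclusive means above 50% but judged a plate artefact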;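 further: 50 nL library stock added to about 25 µL; numbers are from one replicate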
Mtb hypoxia rep growth = further read-out of Mtb hypoxia rep, marked with its call; growth inhibition, %; measured here: M. tuberculosis growth (absorbance);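 0% = vehicle and 100% = reference antibiotic; read after six days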
Active calls of the source: *; ? = inconclusive; / = no result given.

SMILES	ugtP null kill	PrP 5UTR inh	RN4220 kill	Mtb hypoxia rep	Mtb hypoxia rep growth	Autofluor counter	BJeLR viability
COc1ccc(C(CC(=O)O)c2ccc3c(c2)OCO3)cc1 (configuration not stated)	-4	-21	-1.5	15	6	3042	7
CCOC(=O)C1=CC[C@H]2c3c(c4ccccc4n3C)C[C@H]1N2C	5	-8	8.1	-4	4	4003	/
CCS(=O)(=O)N1CCC(c2nc(-c3ccc(C(F)(F)F)cc3)no2)CC1	-6	-3	-3.5	-4	13	11204	15
CC(C)N(Cc1cn[nH]c1-c1ccc(-c2ccccc2)cc1)Cc1nccn1C	1	-27	-0.1	-3	12	2667	-4
CC1CCCCN1C(=O)C1CC(c2ccc(F)cc2)=NO1 (configuration not stated)	8	-59	2.5	13	16	11260	-19
Clc1cccc(Cn2ncc3ccccc32)c1	6	-23	2.6	7	6	3914	14
O=C(c1c(F)c(F)c(F)c(F)c1F)N1CCc2ccccc21	2	-25	-2.6	10	7	4392	0
O=C(N/N=C\c1cc(Br)c(Br)o1)c1cncc(Br)c1	/	-20	/	/	/	2812	-3
CCOC(=O)c1c(/N=C/C2C(=O)CC(C)(C)CC2=O)sc(C)c1C	/	-34	/	/	/	8446	-2
CC/C=C/C(=O)N1CC2(CC(c3cccc(NC(=O)CC(c4ccccc4)c4ccccc4)c3)=NO2)C[C@@H]1C(N)=O (some centres not stated)	/	-29	/	/	/	2926	0
O=[N+]([O-])c1cc(Cc2ccccc2)cc(C=Nc2ccc(N3CCOCC3)cc2)c1O	-7	-15	5.0	1	10	2614	-5
CCN(C(=O)COC(=O)c1ncc(Cl)c(Cl)c1Cl)c1c(N)n(Cc2ccccc2)c(=O)[nH]c1=O	3	8	1.4	4	12	3353	/
Cn1nc(-c2ccccc2)c(COC(=O)c2cccc(Cl)c2)c1S(=O)(=O)c1ccccc1	15	-6	-2.5	/	/	4800	-11
Cn1cnnc1SCc1ccc(-c2ccc(Br)cc2)o1	-18	-30	-7.1	5	10	3188	-2
CCc1c(C)c(C#N)c2nc3ccccc3n2c1NCCOC	0	0	1.0	3	9	3327	4
O=C(CCCCCN1C(=O)[C@@H]2Cc3ccccc3CN2C1=O)Nc1ccccc1Cl	1	2	-1.5	-8	0	4107	-4
COc1ccc(C2=NN(C(C#N)c3ccc(OC)c(OC)c3)C(c3ccccc3)C2)cc1 (configuration not stated)	12	-72	5.6	9	17	5417	-1
O=c1c(Cc2c(F)cccc2Cl)c(O)ccn1Cc1ccc2c(c1)OCO2	30	-19	57	3	2	3278	-10
CCOC(=O)Cc1csc(NC(=O)COc2c(C)cccc2C)n1	12	-38	6.5	16	10	4368	-10
COCCNC(=S)N(CCc1c(C)[nH]c2ccccc12)Cc1ccco1	-11	20	5.1	-7	8	4071	4
CCOC(=O)c1ccc(NC(=O)c2nc[nH]c2C(=O)NC(CC(C)C)C(=O)OC(C)(C)C)cc1 (configuration not stated)	3	/	-0.7	-1	15	/	/
CCCc1cc(=O)[nH]c(SCC(=O)c2cc(C)n(-c3c(C)n(C)n(-c4ccccc4)c3=O)c2C)n1	5	-17	2.7	6	5	3340	2
CN(CC(=O)Nc1ccncc1)S(=O)(=O)c1ccccc1	-1	-12	1.3	/	/	4363	-1
COCCN(C(=O)COC(=O)/C=C/c1ccc(C(F)(F)F)cc1)c1c(N)n(Cc2ccccc2)c(=O)[nH]c1=O	-3	-3	-2.7	-4	1	5668	3
C=CCN1CCN(C(c2cccc(OC)c2OC)c2nnnn2CCC(C)C)CC1 (configuration not stated)	1	-5	4.7	13	4	3952	4
CCn1c(COc2cccc3ccccc23)nnc1SCC(=O)OC1CCCCC1	99*	-10	99*	13	14	6253	-15
COCCn1c(SCC(=O)N2CCCc3ccccc32)nnc1-c1ccoc1C	-2	-2	5.6	2	11	3413	4
CCOc1cccc2cc(C(=O)N3CCc4ccccc4C3)c(=O)oc12	3	-11	6.9	11	6	10951	-13
O=C1OCCN1C(=O)[C@H]1[C@H](c2ccccc2)C(c2ccc(F)cc2)=NN1c1ccc(Br)cc1	24	67*	1.0	2	1	3208	/
NS(=O)(=O)c1ccc(NC(=O)COc2ccc(S(=O)(=O)N3CCCC3)cc2)cc1	11	-21	4.5	3	6	3811	-3
CCOC(=O)c1ccc(CN(Cc2ccc(C)cc2)S(=O)(=O)c2cccc([N+](=O)[O-])c2)cc1	6	-13	5.3	-1	1	2903	-4
O=C(c1ccccc1)c1ccc(-c2ccc(O)cc2)cc1	/	-52	/	/	/	4764	8
CN(Cc1ccc(Br)s1)C(=O)CNC(=O)c1ccc2c(c1)OCO2	5	-2	5.0	/	/	4718	/
Cc1cc(NC(=O)c2ccc([N+](=O)[O-])o2)ccc1NC(=O)c1ccco1	33	-16	11	/	/	2088	-1
CC(=NNC(=S)NCc1ccccc1)c1ccccc1F	26	/	2.3	0	0	/	/
Cc1ccccc1C(=O)NC1CCN(Cc2nnnn2CCc2ccccc2)CC1	-5	-7	1.8	-11	2	5769	/
CS(=O)(=O)c1[nH]nc(-c2cccc(Cl)c2)c1C#N	1	-13	4.1	1	2	4047	11
COC(CNC(=O)CCc1c(C)nc2c(-c3ccccc3)c(C)nn2c1C)OC	13	-41	0.1	2	8	3747	0
CCOc1ccc(-c2[nH]nc3c2C(c2ccc(O)cc2)C(C#N)=C(N)O3)cc1 (configuration not stated)	-1	-27	2.0	2	11	8395	-13
COC(=O)c1cn(-c2ccccc2)nc1-c1ccccc1	-2	-2	18	/	/	2360	-3
CC1(C)CC(NC(=O)c2ccc3c(c2)OCO3)CC(C)(C)N1	6	-19	4.5	7	10	2947	-1
O=C(c1ccc2ccccc2c1)N1CCN(Cc2ccccc2)CC1	18	-20	2.5	5	10	4008	-7
COc1ccc(C/C(N)=N/n2cnnc2)cc1	-1	-32	5.7	1	0	8266	-5
Cc1cccc(OCC(=O)N2CCN(C(=O)c3ccc([N+](=O)[O-])cc3)CC2)c1	-5	-13	2.0	14	9	2384	3
CCn1ncc(Br)c1C(=O)NC1CCCCCCC1	2	-1	0.0	8	1	4811	-3
O=C(NCc1cccnc1)c1ccc(Cl)c(S(=O)(=O)Nc2ccccc2C(=O)NCc2cccnc2)c1	0	-26	6.5	7	1	4125	-27
COc1ccccc1Oc1coc2cc(O)ccc2c1=O	4	-9	4.4	/	/	3715	1
O=C(COc1ccc2c(C(F)(F)F)cc(=O)oc2c1)Nc1ccc(N2CCOCC2)cc1	6	-20	-1.3	9	12	2235	-8
CC(=O)Nc1ccc(NC(=O)c2ccccc2CCc2ccccc2)cc1	4	-11	6.5	0	-11	4223	-1
CCC(=O)Nc1c2c(nn1-c1ccc(C)cc1C)CSC2	-3	-21	2.9	-7	-14	10576	-2
Following part:
SMILES	ugtP null kill	PrP 5UTR inh	RN4220 kill	Mtb hypoxia rep	Mtb hypoxia rep growth	Autofluor counter	BJeLR viability
O=c1ccc(-c2ccc(S(=O)(=O)Nc3ccccc3)o2)n[nH]1	-5	-4	-0.8	-2	5	5764	11
C=CCN1C(=O)N/C(=C/c2ccccc2OCC(=O)Nc2ccc(F)cc2)C1=O	-3	-19	0.4	-2	-5	2192	-3
COc1cccc(NC(=O)c2oc3ccccc3c2NC(=O)C2CC2)c1	-11	12	3.5	0	0	24287*	10
CCc1cccc2c1NC(=O)C2(O)CC(=O)c1cccs1 (configuration not stated)	-2	-18	1.8	9	10	2503	1
O=C(Nc1ccc(F)c([N+](=O)[O-])c1)N1C[C@H]2C[C@@H](C1)c1cccc(=O)n1C2	6	-16	0.9	14	5	6368	-8
CSc1ccccc1NC(=O)c1ccc(Br)o1	5	-21	9.5	/	/	4152	-10
CCN(Cc1ccccc1)Cc1c(F)cccc1F	-1	-14	9.8	13	7	10555	-2
COC(=O)c1ccc(NC(=O)CSc2nnc(COc3ccccc3)n2C)cc1	4	-15	-2.3	/	/	2290	4
O=c1c2c3c(sc2n2cnnc2n1CCc1ccccc1)CCCC3	3	-15	-0.7	8	3	16649*	8
NS(=O)(=O)c1ccc(NC(=O)COC(=O)Cc2c[nH]c3ccccc23)cc1	4	-40	3.9	6	0	4136	/

Seven entries already listed, arranged by count of non-hydrogen atoms, high to low:
SMILES	ugtP null kill	PrP 5UTR inh	RN4220 kill	Mtb hypoxia rep	Mtb hypoxia rep growth	Autofluor counter	BJeLR viability
C=CCN1C(=O)N/C(=C/c2ccccc2OCC(=O)Nc2ccc(F)cc2)C1=O	-3	-19	0.4	-2	-5	2192	-3
O=C(Nc1ccc(F)c([N+](=O)[O-])c1)N1C[C@H]2C[C@@H](C1)c1cccc(=O)n1C2	6	-16	0.9	14	5	6368	-8
COc1cccc(NC(=O)c2oc3ccccc3c2NC(=O)C2CC2)c1	-11	12	3.5	0	0	24287*	10
O=c1ccc(-c2ccc(S(=O)(=O)Nc3ccccc3)o2)n[nH]1	-5	-4	-0.8	-2	5	5764	11
CCc1cccc2c1NC(=O)C2(O)CC(=O)c1cccs1 (configuration not stated)	-2	-18	1.8	9	10	2503	1
CCN(Cc1ccccc1)Cc1c(F)cccc1F	-1	-14	9.8	13	7	10555	-2
CSc1ccccc1NC(=O)c1ccc(Br)o1	5	-21	9.5	/	/	4152	-10

The listing continues:
SMILES	ugtP null kill	PrP 5UTR inh	RN4220 kill	Mtb hypoxia rep	Mtb hypoxia rep growth	Autofluor counter	BJeLR viability
Cc1ccccc1C(=O)N/N=C/c1ccc([N+](=O)[O-])s1	/	26	/	/	/	5615	4
Cc1cc2ncn(C(=O)c3cc(-c4ccccc4)nc4ccccc34)c2cc1C	0	-4	17	6	6	2309	20
COCC(C)NC(=O)NC1(C(F)(F)F)Oc2ccc(Cl)cc2O1 (configuration not stated)	-1	-13	5.1	1	11	9821	-5
O=c1cc(CO)oc(C(Nc2ccccn2)c2cccc(F)c2)c1O (configuration not stated)	10	-29	2.5	7	-1	4454	-12
CON=C(CS(=O)(=O)Cc1ccccc1Cl)c1ccc(Cl)cc1Cl	-7	/	9.0	8	6	/	/
O=C(NC1(c2ccccc2)CC1)C1CCC(=O)N(Cc2ccc(Cl)cc2)C1 (configuration not stated)	5	-13	2.6	7	16	5195	-2
NC(=NO)c1ccncc1	6	/	4.6	3	-11	/	/
CC1CCN(C(=O)COC(=O)CNC(=O)C23CC4CC(CC(C4)C2)C3)CC1	/	-8	/	/	/	5074	8
O=C(CCc1nc2ccccc2c(=O)[nH]1)N1CCN(S(=O)(=O)c2ccccc2Br)CC1	0	-17	-0.6	-5	11	5709	0
CCc1nc2oc3cc(OC)ccc3c(=O)c2c(=O)n1Cc1ccco1	-4	-6	0.0	1	4	3766	/
CC(O)CC(=O)NOCc1ccccc1 (configuration not stated)	7	-14	0.5	0	6	3418	/
CCn1cc(/C=C(\NC(=O)c2ccc(OC)c(OC)c2)C(=O)N2CCN(C)CC2)c2ccccc21	-2	-16	3.6	10	1	4968	-5
O=C(Nc1nccs1)c1ccc(N2CCOCC2)c([N+](=O)[O-])c1	/	-60	/	/	/	5406	-3
CCOc1ccc(OCC(=O)N(C)c2c(N)n(Cc3ccccc3)c(=O)[nH]c2=O)cc1	10	-17	5.0	3	-2	4376	-7
COc1cc(OC)cc(C(=O)N[C@H](C(=O)NCc2ccco2)C(C)C)c1	5	-11	3.1	3	1	4065	6
O=C(NC(=S)NCCC1=CCCCC1)c1ccc(Br)o1	-9	-29	9.1	10	4	3366	-4
O=S(=O)(c1cccc2nsnc12)N1CCOCC1	3	-29	9.1	2	2	2883	-1
NC(=O)c1ccc(C=NO)nc1	0	/	0.0	3	20	/	/
O=C(CNCCO)N1N=C(c2cccs2)CC1c1cccs1 (configuration not stated)	5	-32	2.0	4	18	4954	-1
COc1ccc(C(=O)NC2CC2)cc1OC1CCN(Cc2cnn(C)c2)CC1	9	-13	2.1	0	-2	5694	-7
Cc1occc1C(=O)NNC(=O)c1cccc(F)c1	11	-30	6.5	11	-1	4354	-3
COc1ccc(C(=O)Nc2ccc3c(c2)nc2n3CCSC2)cc1	-1	-67	1.4	7	16	4353	1
C/C(=N\NC(=O)c1ccccc1F)c1cccc(NC(=O)c2ccc(C)cc2)c1	/	-35	/	/	/	?	2
COc1ccccc1OCc1ccc(C(=O)n2nc(C)c(Cl)c2C)o1	65	-47	-2.8	-5	-9	10394	10
COc1ccc(NC2CCCN(C(=O)CSc3ccncc3)C2)cc1 (configuration not stated)	8	0	2.3	2	0	6035	-2
Cc1ccc(C(C(=O)NCc2ccc(F)cc2)N(CCCO)C(=O)C2COc3ccccc3O2)o1 (configuration not stated)	7	-20	0.9	1	-3	2283	-2
CCC(=Nc1ccc(Cc2ccncc2)cc1)c1c(O)n(C)c(=O)n(C)c1=O	3	-10	1.4	3	3	6389	/

Screens as filed in PubChem.
